motility – Vibrio cholerae motility inhibitors, OD read-out (AID 588778). 10,000 tested, under 10 active. Vibrio cholerae motility, OD read-out; higher % means a stronger effect; test concentration not given here; primary cut-off and reference of the scale not given here; strong numbers were not always called active. inhibition, %; hits with a dose series show IC50 in µg/mL; in the data active = confirmed in a dose series
motility viability – recorded beside motility, whose call it bears; inhibition, %; measured here: bacterial viability at 10 ug/mL;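 higher means fewer living bacteria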
The depositor's hits bear a star.

Screening COc1ccccc1-c1nnc(SCc2cccc(C(F)(F)F)c2)n1N returned motility 3% and motility viability 8.
`CCOC(=O)c1c(CSc2nc(C)cc(C)n2)nc2c3ccccc3ccn12` gave motility 7% and motility viability -1.
`CCn1cc(C(=O)O)c(=O)c2cc(F)c(N3CCN(C(=S)Nc4cccc5ccccc45)CC3)cc21` gave motility 99% and motility viability 100.
For CN(C)NS(=O)(=O)c1ccc2c(c1)Cc1cc(S(=O)(=O)NN(C)C)ccc1-2 the results were motility 2% and motility viability 0.
COc1ccc(-c2cc(=O)n(-c3ccccc3)[nH]2)cc1 was read as motility 15% and motility viability -4.
For O=[n+]1cc(-c2c(F)c(F)c(F)c(F)c2F)n([O-])c2c1CCCC2 the results were motility -7% and motility viability -3.
CCn1c(SCC(=O)N2CCC(C(N)=O)(N3CCCCC3)CC2)nnc1-c1ccccc1 was read as motility 1% and motility viability -1.
`O=C(CCCOc1ccc(Cl)cc1Cl)N1CCC2(CC1)OCCO2` gave motility 24% and motility viability 3.
Screening CC1(C)CC(=O)c2cc3c(N)c(C(=O)Nc4nc5ccccc5s4)sc3nc2C1 returned motility -1% and motility viability 0.
`O=c1c2cc(Br)ccc2oc2ccc([N+](=O)[O-])cc12` gave motility -12% and motility viability -1.
Oc1ccc(Cl)cc1CNc1nc2ccccc2[nH]1 was read as motility 94% and motility viability 100.
CSc1ccccc1C(=O)Nc1ccc(F)c(Cl)c1 was read as motility -5% and motility viability -6.
For CC(C)CC(=O)NC(=S)Nc1ccccc1NS(=O)(=O)c1cccs1 the results were motility -5% and motility viability -6.
OCc1cc(Cl)c(Cl)c(CO)c1O was read as motility 8% and motility viability -1.
Screening Nn1c(COc2ccccc2)nnc1SCC(=O)c1ccc2c(c1)CCCC2 returned motility -5% and motility viability -2.
Screening COc1ccc(C2=NOC(CNC(N)=S)C2)cc1 (stereo unspecified) returned motility 45% and motility viability 20.
For Cc1nnc(SCc2ccc(C(=O)c3ccc(Cl)cc3)o2)n1-c1ccccc1 the results were motility 15% and motility viability 8.
For Cc1nc2ccccc2cc1C(=O)N=Nc1c(O)[nH]c2c(C)cccc12 the results were motility -5% and motility viability -3.
`Cc1ccc(-n2cnnn2)c2cccnc12` gave motility -8% and motility viability 2.
O=C(N1CCN(S(=O)(=O)c2cccc([N+](=O)[O-])c2)CC1)N(c1ccccc1)c1ccccc1 was read as motility -8% and motility viability -1.
For O=C(OCc1ccc(F)cc1F)c1cccc(Br)c1 the results were motility -6% and motility viability 2.
Screening c1cn(Cc2ccc(Cn3ccnc3)cc2)cn1 returned motility 22% and motility viability 17.
`COc1ccc(-c2ccc[nH]2)cc1` gave motility -60% and motility viability -13.
Screening COc1cc(C)c(C(C)C)cc1S(=O)(=O)N1CCOCC1 returned motility 35% and motility viability 5.

Ordered by molar mass (falling): some entries from above.
Screening Nn1c(COc2ccccc2)nnc1SCC(=O)c1ccc2c(c1)CCCC2 returned motility -5% and motility viability -2.
OCc1cc(Cl)c(Cl)c(CO)c1O was read as motility 8% and motility viability -1.
`COc1ccc(-c2ccc[nH]2)cc1` gave motility -60% and motility viability -13.

Carrying on:
For Cn1c(-n2c(CCCN3C(=O)c4ccccc4C3=O)nc3ccccc3c2=O)nc2ccccc21 the results were motility 3% and motility viability -3.
Screening O=C(Nc1ccc(Cl)c(Br)c1)c1ccc(Cl)cc1Cl returned motility -11% and motility viability -3.
Screening CC1CCc2c(sc(NC(=O)C3c4ccccc4Oc4ccccc43)c2C(N)=O)C1 (stereo unspecified) returned motility -3% and motility viability -1.
CCOC(=O)C1CCN(C(=O)CN(Cc2ccc(Cl)cc2)S(C)(=O)=O)CC1 was read as motility 4% and motility viability 1.
Cc1ccc(S(=O)(=O)Nc2cc(Cl)c(O)c3ncccc23)cc1 was read as motility 50% and motility viability 12.
`Cc1ccc(SCCC(=O)NCCSCc2c(F)cccc2Cl)cc1` gave motility 0% and motility viability -4.
For O=C(Nc1ccc2c(c1)oc1ccccc12)c1c(F)c(F)c(F)c(F)c1F the results were motility -8% and motility viability -4.
Cc1cc(C)nc(Nc2cccc(C(F)(F)F)c2)n1 was read as motility 1% and motility viability -5.
Screening O=c1nc(NC2CCCC2)ccn1Cc1cccc(Br)c1 returned motility 1% and motility viability -6.
Screening Cc1cc(=O)n2[nH]c(NCc3c(F)cccc3Cl)nc2n1 returned motility -2% and motility viability -5.
Screening CC(C)c1ccc(OCC(=O)N2CCN(c3ccccn3)CC2)c(Br)c1 returned motility -6% and motility viability 1.
O=S1(=O)N=C(N(Cc2ccccc2O)c2cccc3ccccc23)c2ccccc21 was read as motility 38% and motility viability 15.

Compounds from the list above that contain an NH in an aromatic ring:
COc1ccc(-c2cc(=O)n(-c3ccccc3)[nH]2)cc1 was read as motility 15% and motility viability -4.
Oc1ccc(Cl)cc1CNc1nc2ccccc2[nH]1 was read as motility 94% and motility viability 100.
For Cc1nc2ccccc2cc1C(=O)N=Nc1c(O)[nH]c2c(C)cccc12 the results were motility -5% and motility viability -3.
`COc1ccc(-c2ccc[nH]2)cc1` gave motility -60% and motility viability -13.
Screening Cc1cc(=O)n2[nH]c(NCc3c(F)cccc3Cl)nc2n1 returned motility -2% and motility viability -5.

The list goes on.
CSc1ccccc1C(=O)NCC1CCCO1 (stereo unspecified) was read as motility -4% and motility viability -3.
`O=C(Oc1ccc(-c2ccccc2)nn1)c1cccc(F)c1` gave motility 6% and motility viability -1.
For CC(C)NC(=O)c1ccc(OC2CSC2)cc1 the results were motility 2% and motility viability -4.
`C=CCn1c(Sc2ccc(C(F)(F)F)cc2[N+](=O)[O-])nnc1-c1ccccc1Cl` gave motility 5% and motility viability -1.
Cc1ccc(OCC(=O)N2CCN(Cc3ccc4c(c3)OCO4)CC2)c(Br)c1 was read as motility 4% and motility viability 2.
Screening O=C(O)c1ccccc1OCCCCOc1cccc2cccnc12 returned motility -8% and motility viability -9.
For Fc1ccc(NC(=S)Nc2cccnc2)c(F)c1F the results were motility 53% and motility viability 16.
Screening CNC(=S)Nc1ccc(Oc2ccccc2Cl)cc1 returned motility 29% and motility viability 9.
Screening O=C1OC(C(=O)NCCc2c[nH]c3ccccc23)Cc2ccccc21 (stereo unspecified) returned motility -3% and motility viability 32.
For O=C(Cn1nnc(-c2ccccc2F)n1)NCc1ccco1 the results were motility -10% and motility viability -9.
O=C(NCc1ccncc1)Nc1cccc([N+](=O)[O-])c1 was read as motility 13% and motility viability 5.
`C1CCCC(N2CCC(N3CCOCC3)CC2)CC1` gave motility 2% and motility viability -1.
For CCn1nnnc1NCc1c(OC)ccc2ccccc12 the results were motility 8% and motility viability -1.
Screening CCSc1ncc(Cl)c(C(=O)Nc2ccc(S(=O)(=O)N3CCCCCC3)cc2)n1 returned motility 2% and motility viability -6.
Cc1ccc(C(=O)CSc2nnc(N)s2)s1 was read as motility -4% and motility viability 31.
For CCSc1nsc(SCC)c1C(=O)O the results were motility -5% and motility viability -7.
CCOC(=O)NCC(C)(C)CNC(=O)OCC was read as motility 5% and motility viability 1.
Screening C=C(C)CSc1nc2nc(C)cc(C)n2n1 returned motility -3% and motility viability 1.
CCOc1c(I)cc(I)cc1C=C(C#N)C#N was read as motility 1% and motility viability 1.
For O=C(c1cc(Br)ccc1Cl)N1CCN(c2ccccn2)CC1 the results were motility -1% and motility viability -3.
Screening Cc1nn(CC(=O)Nc2ccc3c(c2)nc(CN2CCCCC2)n3C)c(=O)c2ccccc12 returned motility 9% and motility viability 4.
For CC(=O)c1cccc(NS(=O)(=O)c2cc(C(=O)O)ccc2Br)c1 the results were motility -5% and motility viability -7.
`CCN(CC)CC#CCN1c2ccccc2Sc2ccc(Cl)cc21` gave motility 11% and motility viability 5.
`CC12CCC(C(=O)NCc3ccc4c(c3)OCO4)(c3nc4ccccc4nc31)C2(C)C` (stereo unspecified) gave motility 3% and motility viability 0.
`CC(C)Oc1ccc(Cn2c(-c3ccco3)n[nH]c2=S)cc1` gave motility 20% and motility viability 4.
`COc1ccccc1C1C2=C(CC(C)(C)CC2=O)Nc2nnnn21` (stereo unspecified) gave motility -12% and motility viability -2.
For CC1(C(=O)O)CCC(C(=O)Nc2ccc(OC(F)(F)F)cc2)C1(C)C (stereo unspecified) the results were motility 0% and motility viability 6.
For Nc1ccccc1C(=O)c1nnc(Nc2ccccc2)s1 the results were motility -10% and motility viability -4.
CC(=O)OCc1cc(Cl)ccc1O was read as motility 11% and motility viability -3.
COC(=O)CN(C)C(=O)NCC12CC3CC(CC(C3)C1)C2 was read as motility -13% and motility viability -7.
`NC(=O)c1ccccc1NS(=O)(=O)Cc1ccccc1` gave motility 2% and motility viability -6.
`CC(C)(C)c1ccc(OCCNC(=O)c2ccccc2N)cc1` gave motility -13% and motility viability -4.
Screening CC1CN(C(=S)Nc2ccccc2C(F)(F)F)CC(C)O1 (stereo unspecified) returned motility -5% and motility viability -2.
Screening O=c1nc2n(c3ccccc13)Cc1ccccc1/C2=C\c1ccc2c(c1)OCO2 returned motility -9% and motility viability -9.
Screening COc1ccc(NC(=S)NCCNC(C)=O)cc1 returned motility -2% and motility viability -7.
For CC(=O)c1cccc(NC(=S)Nc2ccc(OC(F)(F)F)cc2)c1 the results were motility 55% and motility viability 42.
O=C(O)c1ccccc1C(=O)N1CCN(C(=O)c2ccccc2C(=O)O)CC1 was read as motility -1% and motility viability 0.
For O=C(Oc1ccccc1[N+](=O)[O-])c1ccco1 the results were motility 6% and motility viability 1.
O=C(CSc1nc2ccccc2o1)N=C1NC(=O)CS1 was read as motility 11% and motility viability 7.
Screening COc1ccc(S(=O)(=O)Nc2ccc3c(c2)OCO3)cc1I returned motility 5% and motility viability 4.
`COC(=O)c1ccc2c(=O)n(NC(=O)c3cccs3)c(=S)[nH]c2c1` gave motility 27% and motility viability 7.
`O=C(NC(=S)Nc1ccc2c3c(cccc13)CC2)c1cc(I)ccc1Cl` gave motility 2% and motility viability -4.
For Cc1ccc(S(=O)(=O)CC(CN2CCOCC2)N2CCOCC2)cc1 (stereo unspecified) the results were motility 6% and motility viability -7.
Screening O=C(CN1CCN(Cc2ccc3c(c2)OCO3)CC1)N1N=CCC1c1ccccc1 (stereo unspecified) returned motility 0% and motility viability -5.
For N#C/C(=C/C=C/c1ccc(-c2cc(Cl)ccc2Cl)o1)C(N)=S the results were motility 8% and motility viability 13.
Cc1nn(CC(O)CN2C(=O)C3CCC(C)(C2=O)C3(C)C)c(C)c1Br (stereo unspecified) was read as motility -11% and motility viability -7.
CCOc1ccc(C(O)(C(=O)NCCCCOc2ccc(C)cc2)c2ccc(OCC)cc2)cc1 was read as motility 3% and motility viability 4.
`CCOc1ccc(-n2cnnn2)cc1S(=O)(=O)NCc1ccccc1` gave motility -11% and motility viability -10.
c1ccc(Nc2nc(Nc3ccccc3)nc(N3CCNCC3)n2)cc1 was read as motility 53% and motility viability 22.
Screening O=C(NCC1CCCO1)C1CCN(C(=O)c2ccc(Br)cc2)CC1 (stereo unspecified) returned motility -6% and motility viability -4.
Screening C/C=C/c1ccc(OCCOc2cccc3ccc(C)nc23)c(OC)c1 returned motility 10% and motility viability -6.
Screening Cc1cc(C(F)(F)F)n2nc(C(=O)O)c(Cl)c2n1 returned motility -1% and motility viability -3.
For O=[N+]([O-])c1cccc(NC(=S)NCCn2cc(Cl)cn2)c1 the results were motility 0% and motility viability -2.
Cn1c(-c2ccccc2)cnc1SCC(=O)Nc1ccc2c3c(cccc13)CC2 was read as motility 11% and motility viability -3.
Screening Cc1nnc(SCC(=O)Nc2ccc(-c3nc4ccccc4s3)cc2)s1 returned motility -2% and motility viability 1.

Structures from the list above that contain a COOH group (7):
`CCn1cc(C(=O)O)c(=O)c2cc(F)c(N3CCN(C(=S)Nc4cccc5ccccc45)CC3)cc21` gave motility 99% and motility viability 100.
Screening O=C(O)c1ccccc1OCCCCOc1cccc2cccnc12 returned motility -8% and motility viability -9.
For CCSc1nsc(SCC)c1C(=O)O the results were motility -5% and motility viability -7.
For CC(=O)c1cccc(NS(=O)(=O)c2cc(C(=O)O)ccc2Br)c1 the results were motility -5% and motility viability -7.
For CC1(C(=O)O)CCC(C(=O)Nc2ccc(OC(F)(F)F)cc2)C1(C)C (stereo unspecified) the results were motility 0% and motility viability 6.
O=C(O)c1ccccc1C(=O)N1CCN(C(=O)c2ccccc2C(=O)O)CC1 was read as motility -1% and motility viability 0.
Screening Cc1cc(C(F)(F)F)n2nc(C(=O)O)c(Cl)c2n1 returned motility -1% and motility viability -3.

Bioassay records from PubChem.

Some of the compounds tested; rates above refer to the full screens.
